TRPML1 inh – blocks the human TRPML1 channel | activity change, negative = inhibition, % (test concentration not listed) | AID 624415 | 390,000 tested, 0.02% active | TRPML1-inducible cells, Ca2+ dye fluorescence, FDSS; hits give low values; inhibition of EC80 agonist-evoked calcium signal | Q9GZU1; in the data active means activity change below about -50%; inconclusive means about -30% to -50%; inactive means above about -30%;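 note: stimulus is agonist 54-4 at its EC80 concentration; % is set by controls: 0 for no effect and ±100 for the full control effect; compound concentration not given in the record; the text of the record puts the active cut at -80%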
Target sequence (Q9GZU1 whole entry, looked up): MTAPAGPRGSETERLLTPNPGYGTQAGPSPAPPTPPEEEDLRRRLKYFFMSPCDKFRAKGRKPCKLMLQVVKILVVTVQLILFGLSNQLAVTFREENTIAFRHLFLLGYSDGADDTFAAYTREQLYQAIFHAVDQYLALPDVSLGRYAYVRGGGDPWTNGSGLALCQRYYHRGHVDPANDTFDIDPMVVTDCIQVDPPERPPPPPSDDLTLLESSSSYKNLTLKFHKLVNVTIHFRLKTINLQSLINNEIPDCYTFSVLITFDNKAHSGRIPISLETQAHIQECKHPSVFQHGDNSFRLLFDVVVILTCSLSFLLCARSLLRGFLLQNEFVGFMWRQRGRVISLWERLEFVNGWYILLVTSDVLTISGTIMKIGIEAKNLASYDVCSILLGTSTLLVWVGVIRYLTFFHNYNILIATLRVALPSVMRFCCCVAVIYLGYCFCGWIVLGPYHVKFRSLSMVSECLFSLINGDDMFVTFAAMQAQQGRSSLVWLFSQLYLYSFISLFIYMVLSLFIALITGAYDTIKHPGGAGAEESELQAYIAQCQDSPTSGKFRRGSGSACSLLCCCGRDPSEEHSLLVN
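TRPML1-DL cells, Tet-induced overnight (~16 h, 37 °C) at 1,500 cells/well, were loaded with Ca8 no-wash dye plus quencher for 45-90 min at room temperature. Compounds were pinned during FDSS kinetic reading; agonist 54-4 at EC80 (4 uM final) then added.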
ClpP mod – qHTS Assay for Activators of ClpP | ATP-dependent Clp protease proteolytic subunit (Bacillus subtilis (strain 168)), P80244 | purified B. subtilis ClpP, FRET peptide cleavage, 20 min | Potency, µM (doses to about 57.5 µM), without a hit: at the highest dose activity change, negative = active | 340,000 tested, 1.9% active | AID 651965, 2013; active = well fitted falling curve with a large enough effect; inconclusive = small, poorly fitted or top-dose-only effect; inactive = no such curve, though single readings can be large or run the other way; note: potency is the fitted concentration of half-maximal effect; the source files actives as falling curves though it sought activators and does not explain the sign; nearly all actives have a fitted effect of over 65% in size; many hits overshoot -100%
Target sequence (P80244 whole entry, looked up): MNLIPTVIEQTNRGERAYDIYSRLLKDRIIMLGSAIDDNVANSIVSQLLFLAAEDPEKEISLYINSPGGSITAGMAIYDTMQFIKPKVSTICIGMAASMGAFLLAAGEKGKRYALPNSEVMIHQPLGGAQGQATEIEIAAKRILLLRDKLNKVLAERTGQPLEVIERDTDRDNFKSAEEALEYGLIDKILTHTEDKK
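ClpP 10 microg/mL final, pH 8 Tris/KCl buffer with BSA, glycerol, Tween-20; compound pinned in; FRET-FV substrate; RT 20 min; Ex320/Em430; ΔFRET vs ADEP 5.8 microM, DMSO, no enzyme.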
The depositor's hits bear a star; ? = inconclusive.

SMILES	TRPML1 inh	ClpP mod
COC(=O)c1cc(NC(=O)CCS(=O)(=O)c2cc(Br)cc3c2N(C(=O)C2CC2)CC3)cc(C(=O)OC)c1	-5.6	-3.3%
CCCCN1CC(c2nc3ccccc3n2CCCCOc2c(C)cccc2C)CC1=O (stereo not drawn)	45.2	-4.5%
CCc1ccc(OC(=O)CSc2nnc(-c3ccc4c(c3)OCO4)o2)cc1	15.7	-11.8%
CC(C)c1ccc(NC(=O)C2CCCN(S(=O)(=O)c3ccc(Br)s3)C2)cc1 (stereo not drawn)	23.9	-13.0%
Cc1cc(OCC(=O)N(Cc2ccc(N(C)C)cc2)C2CCS(=O)(=O)C2)cc(C)c1Cl (stereo not drawn)	42.8	-4.2%
COc1ccc(N(CC(=O)N2CCN(c3ccc(F)cc3)CC2)S(=O)(=O)c2c(C)nn(C)c2C)cc1	-8.8	-4.5%
CCCCCn1c(=O)[nH]c2cc(C(=O)NCc3ccccc3)ccc2c1=O	3.5	-24.2%
Cc1csc2nc(COC(=O)CNC(=O)c3ccc(F)cc3)cc(=O)n12	-21.1	4.4%
COc1cc(NC(=O)N2CCC3(CC2)Nc2ccccc2-n2cccc23)cc(OC)c1OC	-11.0	-21.1%
COc1ccc(S(=O)(=O)c2nnn(-c3ccc(C(C)C)cc3)c2C)cc1	11.9	-1.3%
CSc1ncc(C(=O)Nc2ccccc2C(F)(F)F)c(-c2ccccc2)n1	7.0	-2.6%
COc1cc(NC(=O)c2ccc(-c3nc(CSc4ccccc4)c(C)o3)cc2)cc(OC)c1	29.5	14.1µM*
Cc1cccc(-n2ncc(C(=O)N3CCc4ccccc4C3)c2C2CCN(C(=O)OC(C)(C)C)CC2)c1	15.4	0.7%
O=c1cc(CSc2ncn[nH]2)[nH]c2ccc(F)cc12	-20.8	0.8%
CC(O)(c1ccccc1)c1nc(-c2ccc(Cl)cc2)cs1 (stereo not drawn)	18.3	-3.6%
CCCSc1nnc2c(n1)OC(c1ccc(Br)s1)Nc1ccccc1-2 (stereo not drawn)	-10.8	-9.3%
Cc1noc(Cn2c(=O)c3ccccc3n(CC(=O)Nc3cc(Cl)ccc3C)c2=O)n1	2.7	-7.3%
CC1=C(C(=O)OCc2ccc(C)cc2)C(c2ccccc2F)CC(=O)N1 (stereo not drawn)	-12.8	-6.3%
COc1ccc(-c2cc3nc(C)c(CCC(=O)N4CCN(c5ccccc5)CC4)c(C)n3n2)c(OC)c1	14.2	-3.6%
COC(=O)c1cc2sccc2n1CC(=O)Nc1ccc(OC)c(OC)c1	-15.5	-7.5%
N#Cc1c(C(F)(F)F)cc(-c2cccs2)nc1SCc1ccccc1F	5.0	4.9%
Cc1cc2nn(-c3ccc(Cl)cc3)nc2cc1NC(=O)C(C)C	26.1	-12.7%
O=c1c(=O)n(-c2ccc(F)c(F)c2)ccn1Cc1ccc(F)cc1Cl	-2.7	-0.2%
CCOC(=O)c1ccccc1NC(=O)NCc1cccn1Cc1ccc(F)cc1	22.2	?
Cc1sc2c(c1C)c(=O)n(-c1ccc(Cl)cc1)c(=O)n2Cc1c(F)cccc1Cl	-11.7	-0.5%

(continued)
SMILES	TRPML1 inh	ClpP mod
O=C(CSc1nc(-c2ccc(F)cc2)cc(C(F)(F)F)n1)NCc1ccccc1	3.0	-3.6%
NC(=O)C1CCN(c2csc3ccc(F)cc3c2=O)CC1	-1.2	-20.4%
Cc1cccc(-c2nc3c4ccccc4nc(NCc4ccccc4Cl)n3n2)c1	19.6	-2.4%
Cc1cc(C)c2oc(C(=O)Nc3c(C(=O)c4ccccc4)oc4ccccc34)cc(=O)c2c1	-12.6	-0.8%
CCOC(=O)Cn1c(=O)oc2cc(S(=O)(=O)N3CCN(c4cccc(C)c4)C(C)C3)ccc21 (stereo not drawn)	10.5	-3.8%
Cc1cc(-c2ccc(C)c(S(=O)(=O)NC3CCCCC3)c2)on1	-15.7	1.1%
Cc1cccc(C(=O)Nc2cccc(OCc3cc(=O)n4cc(C)sc4n3)c2)c1	-19.1	1.0%
CCOc1ccc(C(=O)NCC(c2ccc3c(c2)OCO3)N2CCN(c3ccc(F)cc3)CC2)cc1 (stereo not drawn)	17.0	-14.9%
O=C(Nc1ccc(F)cc1)c1ccc2c(c1)NC(=O)c1ccccc1S2	8.0	-0.1%
CCc1ccc(C(=O)c2cn(CC(=O)Nc3ccc(OC)cc3OC)c3ccc(CC)cc3c2=O)cc1	-0.6	-1.2%
COc1ccc(C2CC(=O)c3c(C)nc(N4CCN(C=O)CC4)nc3C2)c(OC)c1 (stereo not drawn)	6.7	0.1%
Cc1nc2c(C(=O)NCCc3ccccc3)c[nH]n2c(=O)c1Cc1ccc(F)cc1Cl	-16.1	4.3%
CCOC(=O)c1c(-c2ccc(C)cc2)csc1NC(=O)c1cc(-c2ccc(C)c(F)c2)on1	6.8	1.6%
CCc1nc2c(OCCn3cccc3)cccn2c1N(C)C(=O)C1CC1	3.2	-2.8%
COc1ccccc1CCNC(=O)Cc1c(C)c2ccc(O)cc2oc1=O	-28.4	4.2%
O=C(NCCCO)C(=O)NCC(c1ccc2c(c1)OCO2)N1CCOCC1 (stereo not drawn)	2.7	-2.1%
COc1ccc(NC(=O)CSc2nc3c(oc4ccccc43)c(=O)n2-c2ccccc2)cc1OC	-4.8	-1.2%
Cc1cc(Cl)ccc1OCC(=O)N1CCC(c2nc3ccccc3s2)CC1	11.7	0.9%
Cc1cc(N2CCN(c3cccc(C(F)(F)F)c3)CC2)n2nc(-c3ccccc3C)nc2n1	20.3	0.3%
Cc1ccc2oc(-c3ccc(Cl)c(NC(=O)c4ccc(-c5ccccc5[N+](=O)[O-])o4)c3)nc2c1	11.5	-0.2%
CCc1ccc(NC(=O)CCn2cnc3ccccc3c2=O)cc1	24.9	0.9%
O=C(c1ccc(CS(=O)(=O)c2c(Cl)cccc2Cl)o1)N1CCN(c2ccccc2)CC1	-2.0	0.6%
CN(Cc1ccccc1)S(=O)(=O)c1cc(Br)cc2c1N(C(=O)C1CC1)CC2	39.9	-0.3%
COc1cc(OC)c(N(C)C(=O)c2cc3c(=O)oc4ccccc4c3s2)cc1Cl	-2.0	1.2%
CCOC(=O)Cn1nc(C)c(NC(=O)COc2ccc(Cl)cc2C)c1C	-26.9	-0.2%

2 of these compounds, reformatted.
Results follow in this order: TRPML1 inh, ClpP mod
> Cc1ccc2oc(-c3ccc(Cl)c(NC(=O)c4ccc(-c5ccccc5[N+](=O)[O-])o4)c3)nc2c1
→ 11.5, -0.2%
> Cc1cccc(-c2nc3c4ccccc4nc(NCc4ccccc4Cl)n3n2)c1
→ 19.6, -2.4%

The list continues.
SMILES	TRPML1 inh	ClpP mod
O=c1cc2nc(-c3ccccc3)nc(SCCOc3ccc(Cl)cc3)n2[nH]1	-7.1	-11.0%
CC(CNC(=O)c1ccc(CSc2nc3ccncc3n2Cc2cccc(F)c2)cc1)c1ccccc1 (stereo not drawn)	7.4	-10.5%
CCCCOC(=O)CSc1ncnc2sc3c(c12)CCC(C)C3 (stereo not drawn)	21.7	-4.1%
CCCCN(C)CCNC(=O)c1c2c(nc3ccccc13)C(=O)N(C1CCCCC1)C2	12.3	-29.6%
Cc1ccc(NC(=O)Cn2cc(C(=O)c3ccco3)c3ccccc32)c(C)c1	-15.2	?
Cc1ccc(CNC(=O)c2ccc(-c3nc(CN4CCc5ccccc54)c(C)o3)cc2)cc1	18.3	-0.6%
COC(=O)CSc1ncc2c(n1)-c1ccccc1N(Cc1ccccc1C)S2(=O)=O	-9.9	-21.3%
Cc1ccc(S(=O)(=O)Nc2cc3c(cc2NCc2ccccc2)n(C)c(=O)n3C)c(C)c1	-20.1	4.4%
CCc1ccccc1NC(=O)Cn1c(=O)n(C(C)C)c(=O)c2oc3ccccc3c21	-2.9	-19.2%
Cc1ccc(OCC(=O)Nc2ccccc2C(=O)OCc2cc(=O)n3ccsc3n2)cc1C	-19.6	-1.0%
COc1ccccc1C(=O)Nc1cccc(C(=O)OCc2cc(=O)n3nc(C)sc3n2)c1	2.2	-19.6%
COc1ccc(N2CCN(Cc3nnc(-c4cccc(Br)c4)o3)CC2)cc1	-12.3	-0.6%
Cc1cc(C)cc(-n2ccnc2SCC(=O)Nc2ccc3c(c2)OCO3)c1	-4.2	-3.6%
CCCCCCOc1ccc(C2C(=O)N(C3CCCCC3)CC(=O)N2CCC)cc1 (stereo not drawn)	-5.6	1.0%
Cc1cc(=O)c2cc(C(=O)Nc3ccc(F)cc3)ccc2[nH]1	22.2	-9.0%
CCOC(=O)c1[nH]c(C)c(CCC(=O)NCc2ccc(OC)cc2)c1C	-5.8	-0.5%
O=c1c2sc3ccccc3c2n(Cc2cccc(Cl)c2)c(=O)n1Cc1ccc(F)cc1	2.3	-23.8%
COc1ccc(-n2c(=O)c3c(c4cc(OC)ccc4n3C)n(Cc3cccc(OC)c3)c2=O)cc1	5.4	2.51µM*
CCCCn1c(=O)c2oc3ccccc3c2n(Cc2ccccc2C)c1=O	1.6	-16.5%
Cc1cccc(N2CCN(Cc3nnc(-c4cccc(Br)c4)o3)CC2)c1C	-7.5	-3.7%
Cc1ccc(C)c(N2CCN(C(=O)c3cc4c(=O)oc5ccccc5c4s3)CC2)c1	-17.8	-0.7%
Cc1nc(-c2ccc(S(=O)(=O)NCc3ccc(N(C)C)cc3)cc2)co1	-10.5	1.7%
COc1ccc(Cn2ccnc2SCC(=O)Nc2nc3ccccc3s2)cc1	9.7	-2.9%
CC1=C(C(=O)N(C)C)CC(CC(=O)NCc2cccc3ccccc23)C(=O)N1Cc1ccc(C(C)(C)C)cc1 (stereo not drawn)	-12.7	-2.7%
Cc1ccc(NC(=O)c2ccc3c(c2)NC(=O)c2ccccc2S3)c(Cl)c1	27.0	15.8%

Complete entries as entered above:
CC(CNC(=O)c1ccc(CSc2nc3ccncc3n2Cc2cccc(F)c2)cc1)c1ccccc1 (stereo not drawn) as listed: TRPML1 inh: 7.4; ClpP mod: -10.5%
O=c1c2sc3ccccc3c2n(Cc2cccc(Cl)c2)c(=O)n1Cc1ccc(F)cc1 as listed: TRPML1 inh: 2.3; ClpP mod: -23.8%

Continued:
SMILES	TRPML1 inh	ClpP mod
O=C(c1ccc2c(c1)CCCC2)N1CCN(c2nc3ccc(F)cc3s2)CC1	3.5	1.7%
Cc1cccc(NC(=O)c2c(C)cc(C)nc2SCC(=O)Nc2c(C)cc(C)cc2C)c1	-17.2	-0.4%
O=C(CSc1nc2cc(C(=O)NC3CCCC3)ccc2c(=O)n1CC1CCCO1)c1ccc(F)cc1 (stereo not drawn)	-9.8	-3.3%
COc1ccc2nc3oc(C(=O)N(C)c4ccc(Cl)cc4)cc3cc2c1	23.6	?
COc1ccc(NC(=O)Cn2c(=O)n(CC3CCCO3)c(=O)c3ccccc32)cc1 (stereo not drawn)	-5.2	0.8%
COc1ccc(CCNc2nc(SCc3ccc(F)cc3)nc3ccccc23)cc1OC	19.3	2.1%
CCC1=Nc2cc(C(=O)NCC(C)c3ccccc3)ccc2Sc2ccc(C)cc21 (stereo not drawn)	12.0	-1.3%
CN(C)CCN(C)C1CN(CCc2ccccc2)S(=O)(=O)C1 (stereo not drawn)	-11.2	3.0%
CCc1ccc(CN(Cc2ccco2)C(=O)COc2ccc(Cl)c(C)c2)cc1	24.6	-3.4%
CCN(Cc1ccccc1)C(=O)c1cc2ccc3cccnc3c2[nH]1	24.0	-0.1%
CCOc1ccccc1NC(=O)Cn1nnc2sc(-c3ccccc3)cc2c1=O	-6.5	-2.6%
COc1ccc(NC(=O)Cn2cnc3ccc(S(=O)(=O)N4CCC(C)CC4)cc3c2=O)cc1OC	-0.1	-4.5%
Cc1ccc(Nc2cc(C)c(C#N)c3nc4ccccc4n23)cc1Cl	7.5	-4.1%
CC(=O)c1cccc(NC(=O)CCS(=O)(=O)c2cc(Br)cc3c2N(C(=O)C2CC2)CC3)c1	29.3	-0.2%
CC1=C(C(=O)OCC2CCCCC2)C(c2c(F)cccc2Cl)CC(=O)N1 (stereo not drawn)	2.9	2.0%
COc1ccc(-n2ncc(C(=O)NCc3ccccc3)c2C2CCN(C(=O)OC(C)(C)C)CC2)cc1	5.8	-1.9%
COc1cccc(OCCCCn2c(-c3ccc(Cl)cc3)nc3ccccc3c2=O)c1	1.8	-12.3%
COc1ccc(OC)c(CNS(=O)(=O)c2ccc3[nH]c4c(c3c2)CCCCC4)c1	1.7	-16.4%
O=C(CCc1nc2cccnc2n1Cc1ccccc1)NCc1cccc(Cl)c1	2.5	-3.2%
O=c1c2ccccc2nc(/C=C/c2cccc3ccccc23)n1-c1ccc(F)cc1F	-24.8	-0.9%
Cc1ccccc1CNCCCSc1nnnn1C	-11.0	0.3%
COc1ccc(NC(=O)C(=O)NCCc2ccc(OC)c(OC)c2)c(OC)c1	0.6	-2.1%
Cc1ccc(CNC(=O)C2CCN(c3nc4ccccc4n(C)c3=O)CC2)cc1	2.3	-5.3%
CC(=O)Nc1ccc(S(=O)(=O)NC2(C(F)(F)F)C(=O)Nc3c2c(=O)[nH]c(=O)n3-c2ccc(C)cc2)cc1 (stereo not drawn)	-1.5	-5.4%
O=C(CN1C(=O)C2(SCC(=O)N2c2cccc(F)c2)c2ccccc21)NCCc1ccccc1 (stereo not drawn)	-5.2	2.0%
O=C1CC(c2ccccc2)c2c(n3ncnc3[nH]c2=O)N1 (stereo not drawn)	-11.3	-4.5%

Compound activity as filed in PubChem.

Not all compounds are listed. The share of hits here may be higher or lower than overall.
